Source: PubChem
GLA inh pH 4.5 – qHTS Assay for Inhibitors of Human alpha-Galactosidase at pH 4.5; Alpha-galactosidase A (Homo sapiens), P06280; purified enzyme, 4-MU-alpha-Gal fluorescence, pH 4.5; activity change, negative = inhibition, % at 105 µM; 230,000 tested, under 10 active; inconclusive = small, poorly fitted or top-dose-only inhibition, or a rising curve; inactive = flat fitted curve, though single readings scatter; no compound was filed as active;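 note: 0% = full activity with enzyme and -100% = basal without enzyme; dose as in the result columns while the protocol names 77 µM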
miR-21 reporter – qHTS Assay for Modulators of miRNAs and/orActivators of miR-21; Potency, µM (top dose mostly 38.3 µM), without a hit: at the highest dose reporter change, positive = more light; 340,000 tested, under 10 active; HeLa miR-21 FLuc reporter, luciferase, 48 h; active = well fitted rising curve with a large enough effect; inconclusive = small, poorly fitted or top-dose-only effect; inactive = no such curve, though single readings can be large or run the other way;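 note: % of control where 0% means no effect; miR-21 action dims this reporter so a rising signal means less miR-21 action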
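Compounds were titrated across several concentrations (up to approximately 40 uM) and incubated 48 hours with HeLa miR-21-FLuc reporter cells (miR-21 target sequence downstream of FLuc, endogenous miR-21). Readout was firefly luciferase luminescence after lytic detection reagent.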
Rango-impB inh – qHTS Assay for Inhibitors of Rango (Ran-regulated importin-beta cargo) - Importin beta complex formation | 0.031% of 340,000 active | Importin subunit beta-1 (Homo sapiens), Q14974 | Potency, µM (series often up to 92.2 µM), without a hit: at the highest dose inhibition of complex formation | Rango CFP/YFP FRET sensor + importin beta, 45 min; active = rising FRET ratio curve, often small or poorly fitted; inconclusive = mostly compound fluorescence or quenching in the first reads; inactive = flat curves in all reads;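 note: potency is the fitted concentration of half-maximal effect; 0% = DMSO wells and 100% = buffer wells lacking importin beta; nearly all actives have a fitted effect of over 15% in size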
Target sequence (Q14974 whole entry, looked up): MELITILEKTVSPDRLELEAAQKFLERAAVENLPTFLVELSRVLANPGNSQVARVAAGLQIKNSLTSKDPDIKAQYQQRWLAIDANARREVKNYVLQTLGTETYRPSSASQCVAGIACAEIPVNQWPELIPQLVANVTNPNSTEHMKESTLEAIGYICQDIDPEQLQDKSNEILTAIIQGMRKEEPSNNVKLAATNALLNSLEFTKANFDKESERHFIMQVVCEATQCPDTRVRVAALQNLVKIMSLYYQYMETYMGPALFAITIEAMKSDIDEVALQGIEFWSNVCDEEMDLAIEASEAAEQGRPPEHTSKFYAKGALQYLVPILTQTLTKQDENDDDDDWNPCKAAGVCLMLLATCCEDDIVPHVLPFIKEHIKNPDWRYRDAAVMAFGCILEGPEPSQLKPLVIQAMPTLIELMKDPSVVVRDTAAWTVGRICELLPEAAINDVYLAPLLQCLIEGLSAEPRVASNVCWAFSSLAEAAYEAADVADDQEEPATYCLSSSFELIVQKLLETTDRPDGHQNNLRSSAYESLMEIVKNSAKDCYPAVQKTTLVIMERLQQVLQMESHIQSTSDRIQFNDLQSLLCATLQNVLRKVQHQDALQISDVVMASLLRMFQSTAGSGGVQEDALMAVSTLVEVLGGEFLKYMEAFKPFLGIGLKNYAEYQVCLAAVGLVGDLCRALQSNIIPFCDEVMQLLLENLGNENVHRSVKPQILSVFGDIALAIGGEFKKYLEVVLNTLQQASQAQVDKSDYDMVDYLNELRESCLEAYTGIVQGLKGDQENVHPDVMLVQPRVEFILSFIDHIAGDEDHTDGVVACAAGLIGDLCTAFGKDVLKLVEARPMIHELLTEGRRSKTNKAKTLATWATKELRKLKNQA
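FRET biosensor (snurportin 1 IBB flanked by EYFP and cerulean), 50 nM, with compound 5 min, then 0.125 microM importin beta in PBS, 1 mM DTT, 0.02% Tween-20, 0.1% BSA. CFP/YFP ratio read after 45 min at room temperature; pre-read flags interference.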
Rango dissoc inh – qHTS Assay for Inhibitors of RanGTP induced Rango (Ran-regulated importin-beta cargo) - Importin beta complex dissociation. Snurportin-1 (Homo sapiens) + GTP-binding nuclear protein Ran (Homo sapiens) + Importin …. Biochemical FRET Rango-importin beta, RanGTP-induced dissociation. Potency, µM (top dose mostly 46.1 µM), without a hit: at the highest dose activity change, negative = inhibition. 0.071% of 340,000 active. AID 540253, 2011; active means falling FRET ratio curve, often poorly fitted, with flat reads before Ran was added; inconclusive means other falling curves, or compound fluorescence or quenching; inactive means flat or rising ratio curve;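 note: potency is the fitted concentration of half-maximal effect; % of control where 0% means no effect; nearly all actives have a fitted effect of over 45% in size; -100% = wells without RanGTP and RCC1; the record marks most hits as doubtful in a second field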
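Rango FRET biosensor (snurportin-1 IBB flanked by N-terminal EYFP and C-terminal CFP10) at 0.1 uM, with 0.25 uM importin beta in PBS, 1mM DTT, 0.02% Tween-20, 0.1% BSA. 0.6 uM Ran, 2mM GTP and 0.2 uM RCC1 were then added for 45 min at room temperature. Inhibition read as loss of FRET rise.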
The depositor's hits bear a star; ? = inconclusive; . = no result given. This is a subset. The share of hits here may be higher or lower than overall.

SMILES	GLA inh pH 4.5	miR-21 reporter	Rango-impB inh	Rango dissoc inh
COc1cccc(/C=C2/SC(=O)N(C)C2=O)c1OCc1ccc(C(=O)O)cc1	0	-10%	0.4%	5%
CC1(C)CC(=O)c2cc(OCC(=O)NCCN3CCOCC3)ccc2O1	13	0%	-0.6%	-5%
O=C(Nc1ccc(OC(F)(F)F)cc1)Nc1cccnc1	-27	-36%	-3.6%	1%
O=C1C(Cc2ccccc2)Nc2ncnc(N3CCN(c4ccccc4)CC3)c2N1Cc1ccc(Cl)cc1 (configuration not stated)	.	.	-0.7%	6%
CCOC(=O)c1c(NC(=O)CN2CCOCC2)sc2c1CCCC2=O	9	-1%	3.6%	10%
COC(=O)c1ccccc1NC(=O)Oc1ccc(F)cc1	7	0%	-1.0%	11%
CCCCNCc1nc2ccccc2c(=O)[nH]1	0	-2%	1.6%	-6%
Cc1c(NC(=O)NC(=O)c2ccc(F)cc2)c(=O)n(-c2ccccc2)n1C	-12	0%	1.1%	-9%
CCOC(=O)Cc1csc(NC(=O)CSc2nnc(C)n2C)n1	2	-3%	-3.4%	-1%
O=S1(=O)N=C(N=Nc2c(O)[nH]c3ccccc23)c2ccccc21	-8	-1%	-1.2%	-12%
Nc1ncnc2c1ncn2[C@@H]1O[C@H](CNC(=O)[C@H](N)Cc2cscn2)[C@@H](O)[C@H]1O	.	.	-3.6%	?
CC1CCN(CCCOc2ccc(Cl)cc2Br)CC1	-1	-30%	-6.9%	-13%
CCN=C1S/C(=C\c2ccc(Sc3ccc(Cl)cc3)o2)C(=O)N1CC	-18	-4%	?	-17%
c1coc(-c2ncc[nH]2)c1	-4	-3%	-0.1%	-6%
N#CC1=C(N)OC2=C(C(=O)CCC2)C1c1ccsc1 (configuration not stated)	1	0%	0.9%	3%
O=C(COc1ccc(Cl)cc1Cl)NNC(=S)NCc1ccco1	1	-24%	-4.7%	-1%
CCN1CCN(C(=O)C2CCN(C(=O)c3cc4sccc4n3CC)CC2)CC1	5	3%	-3.9%	-7%
CCCNC(=O)C1CC(=O)N(c2ccc(OCC(=O)Nc3cc(C)cc(C)c3)cc2)C1 (configuration not stated)	8	-9%	-0.2%	39%
CCOc1ccc(NC(=O)CN(C)C(=O)CCNC(=O)c2ccc(Br)cc2)cc1OCC	.	.	-5.4%	-7%
Cc1ccc(C)c(S(=O)(=O)N2CCN(C(=O)C3CCN(C(=O)c4ccc(F)cc4)CC3)CC2)c1	.	.	3.1%	6%
Nc1ccccc1SCC(=O)Nc1ccc(N2CCOCC2)cc1	-5	-5%	-0.7%	1%
CC(=O)Nc1ccc(S(=O)(=O)N2CCSC2)cc1	.	1%	0.7%	-9%
COc1cc2c(cc1OC)CN(CC(=O)Nc1ccc3c(c1)OC(F)(F)O3)CC2	-4	-4%	-4.2%	3%
Cc1ccc2nc3c(c(C(=O)O)c2c1)CCC3	-4	-8%	9.4%	4%
Cc1csc(NC(=O)CSc2ncn(-c3ccccc3)n2)n1	1	-7%	-1.0%	-1%
Clc1ccc(-n2nnnc2-c2cnc(-c3ccncc3)nc2-c2cccs2)cc1	-17	-3%	1.6%	-1%
C=CC[C@H](CC(=O)NCCO)C(=O)N[C@@H](COC(=O)[C@@H](CC=C)CC(=O)OC(C)(C)C)Cc1c[nH]c2ccccc12	.	.	-1.7%	4%
CCOc1ccc(C(=O)Nc2cc3c(cc2N2CCCC2)n(CC)c(=O)n3CC)cc1OCC	.	1%	0.2%	-13%
O=C(Cc1ccc(F)cc1)N1CCC(N2CCC(C(=O)N3CCOCC3)CC2)CC1	1	1%	-0.7%	-7%
CC(C)NS(=O)(=O)c1ccc(CCC(=O)Nc2ccc3c(c2)OCCO3)cc1	5	-4%	-4.0%	-4%
C=CCOc1ccc(/C=C/C(=O)OCC(=O)NCC2CCCCC2)cc1	.	.	-0.5%	-2%
c1coc(CNc2c3c(nc4ccccc24)CCC3)c1	-8	5%	?	?
COC(=O)C1=C(C)NC(=O)CC1c1ccc(F)c(Br)c1 (configuration not stated)	0	-2%	-6.5%	17%
CCC1(CC)Cc2ccccc2-c2nc(NCCO)[nH]c(=O)c21	10	0%	3.7%	9%
Cc1ccc(C)c(Cn2nnc3c(=O)[nH]c(C4CCCN(C(=O)C5CCCCC5)C4)nc32)c1 (configuration not stated)	-4	10%	2.3%	6%
CCN(CC(=O)Nc1c(F)cccc1F)C(=O)c1cc2c(cc1Cl)N1CCCCCC1=NS2(=O)=O	.	.	0.4%	-9%
CC(=O)Nc1ccc(OC(=O)c2cccs2)cc1	-2	-1%	3.3%	-10%
CCCN(CC(=O)Nc1ccccc1C)C(=O)c1ccc(=O)n(Cc2ccccc2)n1	.	.	-4.3%	2%
O=C1CCC2(CC1)NC(=O)N(c1ccccc1)N2	-6	11%	-0.9%	8%
C=CCNc1nc(C(=O)OCC(=O)c2ccc(C)c([N+](=O)[O-])c2)cs1	.	-8%	0.0%	-13%
N#Cc1c(N2CCCC(O)C2)nc(N)c2c(N)nc3c(c12)CC(=O)N3C12CC3CC(CC(C3)C1)C2 (configuration not stated)	-7	-19%	?	-27%
COc1ccc(C(=O)N/N=C(/C)c2ccc(N3CCCCC3)cc2)cc1	-5	-64%	-0.9%	-1%
O=C(CN1CCCC1)Nc1ccc(NC(=O)Nc2ccccc2Cl)cc1	4	-55%	2.5%	11%
COc1ccc2[nH]c3c(=O)n(CCc4ccccc4)cnc3c2c1	0	-11%	1.5%	0%
CC(C)(C)C(=O)Nc1cccc(-c2cc(-c3c(Cl)cccc3Cl)no2)c1	-10	3%	3.0%	3%
CCN(CC)CCCN1C(=O)C(=O)/C(=C(/O)c2c(C)nc3ccccn23)C1c1ccc(C)o1 (configuration not stated)	.	.	-0.8%	10%
COc1ccccc1OCC(=O)NCC1CCCN(C(=O)c2ccccc2SC)C1 (configuration not stated)	.	-1%	5.8%	11%
Fc1ccc2nc(N3CCOCC3)sc2c1	-3	-74%	-4.5%	31%
COC(=O)CC1C(=O)NCCN1C(=O)c1ccc(Cl)cc1 (configuration not stated)	.	1%	0.5%	-7%
c1cnc(N2CCN(c3cnccn3)CC2)nc1	2	-14%	0.5%	5%
COc1cccc(C(=O)Nc2ccccc2-c2ccccc2)c1	.	.	1.2%	18%
Cc1ccccc1NC(=O)CSc1nnc(Cc2ccccc2)c(=O)n1N	.	.	4.9%	16%
Cc1ccc(S(=O)(=O)N2CCCCC2)cc1NC(=O)Cn1c(=O)cnc2ccccc21	4	-23%	0.4%	4%
O=C(Nc1ccc(Cl)cc1)NC1CCCc2ccccc21 (configuration not stated)	7	-3%	0.9%	-8%
CCCCCCCCCCCCOC(=O)C[N+](C)(C)C	-13	6%	-5.0%	-5%
Clc1cccc(Cl)c1-c1noc(-c2ccno2)n1	-9	-2%	4.2%	-7%
COc1ccc(N2CCCC2)c(NC(=O)c2ccc(Br)o2)c1	.	-3%	-0.2%	-1%
CCOC(=O)C1(Cc2ccccc2)CCN(Cc2ccc(COC)o2)CC1	1	6%	1.7%	13%
CCc1ccccc1-n1ncc(C(=O)Nc2ccc(OC)cc2)c1C	.	.	-5.0%	25%
COC(=O)C1=C(COc2ccc(F)cc2)NC(=O)NC1c1ccc(C)cc1C (configuration not stated)	-29	5%	?	-19%
Later entries.
SMILES	GLA inh pH 4.5	miR-21 reporter	Rango-impB inh	Rango dissoc inh
COc1ccc(OC)c(-n2c(C)cc(/C=C3\C(=N)N4N=C(CC(=O)N5CCOCC5)SC4=NC3=O)c2C)c1	.	-8%	?	?
CC(OC(=O)c1nsc(Cl)c1Cl)C(=O)NCc1cccs1 (configuration not stated)	-19	-5%	0.1%	-3%
CCOc1ccc(C(=O)Nc2ncccc2Cl)cc1	-9	-59%	3.4%	1%
Cc1nn(C)c(Cl)c1CN1CCC(CO)(CC2CCCCO2)CC1 (configuration not stated)	5	-16%	0.2%	15%
Cc1cc(NC(=S)N(CCCN2CCN(C)CC2)Cc2ccco2)ccc1Cl	-5	5%	1.1%	-7%
COc1ccc(S(=O)(=O)CC(=O)c2cc3cccc(C)c3oc2=O)cc1	.	0%	-4.5%	-25%
O=C(CSc1cc(Cl)ccc1Cl)NCC1CCCO1 (configuration not stated)	1	-10%	4.4%	11%
O=C(COC(=O)c1ccccc1)NCC1CCCO1 (configuration not stated)	-6	-3%	-5.0%	-1%
O=C1CNC(=S)N1Cc1ccc(F)cc1	.	3%	0.1%	0%
CC(=O)c1ccc(N2CCN(c3ccc(S(=O)(=O)N4CCN(C)CC4)cn3)CC2)cc1	-1	-6%	3.5%	9%
COc1cc(OC)c(CN2CCCN(C)CC2)cc1Br	.	-1%	2.7%	-11%
Cc1ccc(-c2csc(CC(N)=O)n2)cc1	5	-37%	0.1%	-5%
O=C(C1CCCN(Cc2cccc(Cl)c2)C1)N1CCCCC1 (configuration not stated)	.	-1%	-0.7%	0%
COc1ccc(OC)c(CNc2c(C=O)c(=O)[nH]c3ccccc23)c1	.	0%	0.5%	-13%
N#CC(Cc1ccccc1)(Cc1ccccc1)C(=O)NN	.	-2%	2.6%	10%
O=C(Nc1ccccc1-c1ccccc1)NC1CC2CCCC(C1)N2CCc1ccccc1 (configuration not stated)	-9	-6%	1.3%	8%
Cn1ncc([N+](=O)[O-])c1C(=O)NC1CCCCCC1	.	-6%	3.1%	8%
Cc1nc(N2CCNCC2)c2c3c(sc2n1)CCCC3	.	-11%	-2.3%	1%
O=Cc1c(NCCc2cccc(F)c2)c2ccccc2[nH]c1=O	.	-6%	3.4%	1%
Cc1cc(NC(=O)CSc2nnc(COc3ccccc3)n2Cc2ccco2)no1	9	-1%	-7.6%	-3%

Some of these compounds in order of the miR-21 reporter value, descending:
structure	GLA inh pH 4.5	miR-21 reporter	Rango-impB inh	Rango dissoc inh
O=C(Nc1ccccc1-c1ccccc1)NC1CC2CCCC(C1)N2CCc1ccccc1 (configuration not stated)	-9	-6%	1.3%	8%
O=C(CSc1cc(Cl)ccc1Cl)NCC1CCCO1 (configuration not stated)	1	-10%	4.4%	11%
Cc1nc(N2CCNCC2)c2c3c(sc2n1)CCCC3	.	-11%	-2.3%	1%

(continued)
SMILES	GLA inh pH 4.5	miR-21 reporter	Rango-impB inh	Rango dissoc inh
CCOc1ccc(Cl)cc1S(=O)(=O)N1CCC(C(=O)NCc2ccccn2)CC1	.	-1%	0.4%	22%
NS(=O)(=O)OCCCc1ccccc1	.	-3%	3.1%	23%
CC(=O)c1cccc(NC(=O)CCS(=O)(=O)c2cccc3nsnc23)c1	7	-6%	-1.7%	11%
COCCCNC(=S)NNC(=O)C1CC1c1ccc(C(C)(C)C)cc1 (configuration not stated)	-5	9%	2.4%	8%
CCOC(=O)C(C)(C)NS(=O)(=O)c1ccc(Cl)c([N+](=O)[O-])c1	1	-1%	3.5%	-7%
CC(C)Oc1ccc(C(=O)NC(=S)N2CCOCC2)cc1	6	-52%	2.9%	-6%

Full records, looked up by structure.
NS(=O)(=O)OCCCc1ccccc1 across the screens: GLA inh pH 4.5 = .; miR-21 reporter = -3%; Rango-impB inh = 3.1%; Rango dissoc inh = 23%
CCOc1ccc(Cl)cc1S(=O)(=O)N1CCC(C(=O)NCc2ccccn2)CC1 across the screens: GLA inh pH 4.5 = .; miR-21 reporter = -1%; Rango-impB inh = 0.4%; Rango dissoc inh = 22%
CC(C)Oc1ccc(C(=O)NC(=S)N2CCOCC2)cc1 across the screens: GLA inh pH 4.5 = 6; miR-21 reporter = -52%; Rango-impB inh = 2.9%; Rango dissoc inh = -6%
